# PKD1 kinase inh – PKD1 (human) kinase inhibition. PKD1 kinase fluorescence polarization assay. AID 797. 200,000 tested, 0.056% active. Q15139. inhibition, %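 (about 10 µM by stock and volumes)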;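 active = inhibition of 50% or more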;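 also: controls were vehicle for no effect and a reference inhibitor for full effect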
# Target sequence (Q15139 whole entry, looked up): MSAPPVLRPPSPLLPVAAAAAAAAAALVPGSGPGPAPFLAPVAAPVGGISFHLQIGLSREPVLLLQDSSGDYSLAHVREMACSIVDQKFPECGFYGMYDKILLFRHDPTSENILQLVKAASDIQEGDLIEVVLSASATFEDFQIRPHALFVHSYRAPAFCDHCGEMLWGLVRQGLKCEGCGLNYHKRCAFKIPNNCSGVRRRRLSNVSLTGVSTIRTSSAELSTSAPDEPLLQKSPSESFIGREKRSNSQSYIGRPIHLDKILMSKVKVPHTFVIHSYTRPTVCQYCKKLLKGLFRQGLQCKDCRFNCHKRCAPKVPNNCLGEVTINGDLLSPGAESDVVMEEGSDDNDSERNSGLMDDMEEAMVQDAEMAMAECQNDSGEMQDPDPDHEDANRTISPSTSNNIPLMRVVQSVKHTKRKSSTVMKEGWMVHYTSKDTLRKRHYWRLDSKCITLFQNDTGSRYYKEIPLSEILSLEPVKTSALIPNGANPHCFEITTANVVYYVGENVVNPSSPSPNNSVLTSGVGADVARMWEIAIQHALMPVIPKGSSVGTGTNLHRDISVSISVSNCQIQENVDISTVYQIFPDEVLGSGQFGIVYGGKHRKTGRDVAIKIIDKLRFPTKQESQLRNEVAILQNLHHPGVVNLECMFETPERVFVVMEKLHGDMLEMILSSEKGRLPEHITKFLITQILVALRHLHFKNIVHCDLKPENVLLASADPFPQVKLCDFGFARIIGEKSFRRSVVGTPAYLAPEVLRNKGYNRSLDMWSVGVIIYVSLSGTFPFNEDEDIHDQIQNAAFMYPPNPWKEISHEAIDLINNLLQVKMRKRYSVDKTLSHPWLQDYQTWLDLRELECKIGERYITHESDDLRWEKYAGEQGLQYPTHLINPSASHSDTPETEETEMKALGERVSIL
# HSV replic up – increases HSV replication in cells. maximum fold increase. HSV replication augmentation in cells, fold increase. 220,000 tested, 0.005% active;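 active = peak rise of 1.5-fold or more in the series; inconclusive = self-fluorescent or not available for retest; tested in PC3 cells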;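 also: first round at 10 µM; read as green reporter fluorescence; hits show the peak of a series up to 25 µM; 1 = signal of infected wells without compound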
# Insulin prom inh – TRM-6 insulin promoter activity inhibition; 130,000 tested, 0.9% active; inhibition, % at 2 µM; AID 1273; TRM-6 cells (human fetal islet line), insulin promoter-eGFP reporter, imaging; reporter expression induced with tamoxifen;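 active = inhibition above the mean plus 3 SD, with well images judged a real hit on visual review, cut at about 60% in these data, passing the limit was not always enough; inconclusive = inhibition over the cutoff but images rejected on review; inactive = inhibition not above the cutoff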
# GALR2 ag – activates the human galanin receptor 2. O43603. GALR2-expressing cells, agonist activation read-out. activation, %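 (tested at 5 µM)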. 140,000 tested, 0.48% active. AID 803;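 active = above mean plus 3 SD of all compounds, about 5% in these data, not always enough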;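 also: 0% = vehicle buffer wells and 100% = reference agonist at full effect; tested in CHO reporter cells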
# RGS16-Gao HTS – modulates binding between human RGS16 and Galphao; binding response (% of control), % at 10 µM; O15492+P09471; 220,000 tested, 0.38% active; AID 1441; bead-based flow cytometry RGS16-Galphao binding, fluorescence; actives lie on both sides;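 active = below 25% or above 175%, edge rows of some plates excepted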;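 also: Galphao activated by GDP with aluminum fluoride before binding; 100% = wells without compound and 0% = beads without RGS; some results beyond the cut were filed as inactive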
# Insulin prom inh cell count – recorded beside Insulin prom inh, whose call it bears; normalized cell count, %; measured here: cell count, toxicity; reference of the scale not given here;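 cells exposed to compound for 48 h; stained nuclei by imaging scaled within each plate; lower means fewer cells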
# HSV replic up primary fold – second read-out of HSV replic up, no call of its own (marks repeat the call); fold increase; compound at 10 µM; measured here: primary screen fold increase 10 uM; tested in PC3 cells;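 GFP signal in the first replicate; 1 = infected wells without compound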
# An asterisk follows results filed as active; i = inactive; ? = inconclusive; . = not tested or not shown. The order is random; about 1.3% have a hit in one of these screens.
# Values in the order: PKD1 kinase inh	HSV replic up	HSV replic up primary fold	Insulin prom inh	Insulin prom inh cell count	GALR2 ag	RGS16-Gao HTS
> CN(C)c1ccc(C2CC(c3ccccc3)=Nc3nc(-c4ccccc4)cn32)cc1 (configuration not stated)
 : -6	i	1.1	3	104	1.4	103
> O=c1[nH]c(N2CCc3ccccc32)nc2c1CCCC2
 : -4	i	0.92	-473	59	-1.8	101
> Cc1ccc(N(CC(O)CON=C2c3ccccc3-c3ccccc32)S(C)(=O)=O)cc1 (configuration not stated)
 : -10	i	0.76	-41	132	-0.3	102
> CCOC(=O)C1=C(C)N(CCCCCC(=O)O)C(=O)NC1c1ccccc1Cl (configuration not stated)
 : 4	i	0.67	15	88	-0.8	81
> CCCCNC(=S)N/N=C/c1ccc(OCC(=O)Nc2c(C)cc(C)cc2C)c(OC)c1
 : -4	i	1.1	.	.	0.2	106
> Cc1cccc(NC(=O)COc2nsnc2N2CCOCC2)c1
 : 2	i	1	-29	84	-1.7	100
> c1csc(CNCc2ccncc2)c1
 : -5	i	0.9	.	.	.	103
> CCCCC(=O)C1CCN(Cc2ccccc2)CC1
 : 0	i	0.86	9	104	0.3	97
> O=C1C2C(C(=O)N1/N=C/c1ccc(N3CCCCC3)o1)C1C=CC2C12CC2 (configuration not stated)
 : 10	i	1.1	-182	54	-1.6	99
> CCC(C)NS(=O)(=O)c1ccc(NC(C)=O)cc1 (configuration not stated)
 : 4	i	0.84	60	34	-2.7	100
> CCOc1cc(N2CCOCC2)c(OCC)cc1NC(=O)COc1ccc2ccc(=O)oc2c1
 : 1	i	0.95	-53	64	-0.7	85
> O=C(Nc1ccc2c(c1)CCC2)c1cccc(S(=O)(=O)N2CCN(c3ccccc3)CC2)c1
 : 0	i	0.99	1	81	-2.0	106
> O=C(COCC(=O)N/N=C/c1ccc(F)cc1)N/N=C/c1ccc(F)cc1
 : 2	i	0.94	.	.	-0.9	103
> Cc1ccc(C(=O)CSC2=C(C#N)C(c3ccco3)C3=C(CC(C)(C)CC3=O)N2)cc1 (configuration not stated)
 : 2	?	.	17	177	-0.4	102
> C=CCn1c(COc2ccc(F)cc2)nnc1SCC(=O)Nc1cccc(S(N)(=O)=O)c1
 : 1	i	0.88	-11	102	.	95
> Cc1cc(NC(=O)COc2cccnc2[N+](=O)[O-])no1
 : -4	i	0.88	.	.	.	99
> Cc1onc(-c2c(F)cccc2Cl)c1C(=O)N1CCSCC1
 : .	i	1	.	.	.	103
> Cn1c(N)c(C(=O)NCc2ccccc2Cl)sc1=S
 : 5	i	0.85	7	121	-0.6	103
> CCOC(=O)C1(Cc2ccc(O)cc2)NC(c2ccco2)C2C(=O)N(c3ccccc3F)C(=O)C21 (configuration not stated)
 : -3	i	1.1	6	96	-2.1	98
> COCCNC(=O)/C(C#N)=c1\s/c(=C\c2ccccc2OC(F)F)c(=O)n1Cc1ccccc1
 : 1	i	1.1	.	.	.	101
> OC1(c2cccc(C(F)(F)F)c2)CCN(c2ncnc3c2[nH]c2ccc(F)cc23)CC1
 : -16	.	.	64	66	0.1	103
> CCOc1ccc(CCNC(=O)c2cc(C)nn2-c2ccccc2)cc1
 : .	i	1.2	.	.	.	98
> COc1ccc(CN2CCc3cc(OC)c(OC)cc3C2)cc1O
 : 0	i	0.63	.	.	.	95
> CCOC(=O)c1sc(Nc2cccc(Cl)c2)nc1C
 : .	i	0.91	.	.	.	98
> CCNc1nc(NC(C)C)nc(N(C#N)Cc2ccccc2)n1
 : 2	i	0.91	27	96	-1.1	120
> C/C(=N\OC(=O)c1cccc(Cl)c1)c1sc(C)nc1C
 : -2	i	0.86	50	120	-1.6	75
> Cc1c(CN2CCC(CO)(CC3CCCCO3)CC2)cnn1C (configuration not stated)
 : -5	i	0.98	.	.	.	109
> Cc1ccc(C)c(S(=O)(=O)N2CCN(CC(=O)Nc3ccc4c(c3)OCCO4)CC2)c1
 : -7	i	0.72	-4	203	0.7	116
> NC(=O)CC(NC(=O)c1ccc(Br)cc1)c1ccc(NCc2ccc(F)cc2)c([N+](=O)[O-])c1 (configuration not stated)
 : .	i	0.89	.	.	.	103
> CCOC(=O)CNC(=O)C(CO)NC(=O)OCc1ccccc1 (configuration not stated)
 : -8	i	0.93	.	.	-2.7	94
> CCCN(CCC)CCCNc1ccc2nnc(-c3ccc(F)cc3)n2n1
 : 4	i	0.87	.	.	1.4	90
> Cc1ccc(NC(=O)CSc2nnc(C3CCCCC3)n2N)cc1F
 : 0	i	0.57	15	97	-2.3	94
> Oc1ccc(/C=N\Nc2nncc(-c3ccccc3)n2)cc1
 : .	i	0.85	.	.	.	103
> CCOc1ccc2nc(NC(=O)Cc3cccs3)sc2c1
 : -4	i	0.79	-5	109	-3.1	94
> Cc1ccc(NC(=O)C2CCCN(S(=O)(=O)c3cnc[nH]3)C2)cc1C (configuration not stated)
 : -6	i	0.86	.	.	-1.4	103
> c1ccc2c(c1)CCN(C1=Nc3cccc4cccc1c34)C2
 : 1	i	0.95	-56	99	.	108
> COc1ccc(C(c2sc3nc(C)nn3c2O)N2CCN(CCO)CC2)cc1OC (configuration not stated)
 : -6	i	0.95	0	77	-0.8	103
> CC1(C)CCc2cc(-c3ccn(S(=O)(=O)c4ccccc4Cl)n3)ccc2O1
 : .	i	1	.	.	.	102
> Cc1cc(C(=O)NC2CCCCC2)on1
 : .	i	0.92	.	.	.	88
> COCCN(C(=S)Nc1ccc(C)cc1)C(C)c1ccco1 (configuration not stated)
 : .	i	0.93	.	.	.	95
> S=c1[nH]c2ccccc2n2cccc12
 : .	i	0.9	.	.	.	97
> O=C(CNC(=O)c1ccco1)N=Nc1c(O)n(CCc2ccccc2)c2ccccc12
 : .	i	0.77	.	.	.	110
> COc1ccc(N(C(=O)c2ccco2)S(=O)(=O)c2cc(Cl)c(Cl)cc2Cl)cc1
 : 3	i	0.88	-50	82	-0.8	104
> Cc1ccc2c(C(=O)CSc3ccccc3)c(C)[nH]c2c1
 : 5	i	0.95	35	173	2.1	105
> CN(Cc1ccccc1)CC(O)COc1ccc(CNCc2nccn2C)cc1 (configuration not stated)
 : -4	i	0.96	.	.	.	115
> Cc1nc2ccccc2c(=O)n1NC(=O)c1ccccc1[N+](=O)[O-]
 : -2	i	0.95	.	.	.	106
> O=S(=O)(Nc1cccnc1)c1cccc(Cl)c1
 : 3	i	1	-18	72	-1.8	82
> O=C(Nc1cccc(S(=O)(=O)N2CCOCC2)c1)c1cn(-c2ccccc2)nc1-c1ccccc1
 : -3	i	0.84	-14	103	0.3	105
> Cc1ccc(C(=O)NC2CC3CCC(C2)N3Cc2ccco2)cc1 (configuration not stated)
 : -11	i	0.98	-23	137	-3.8	98
> COc1ccc(CN2CC(C(=O)NCCCN3CCOCC3)CC2=O)cc1 (configuration not stated)
 : 26	i	1	-47	84	-1.8	103
> CC(=O)c1cccc(CN2CCN(CC(C)C)C(CCO)C2)c1 (configuration not stated)
 : 7	i	0.91	.	.	.	111
> COc1ccc(C(=O)NC(C)(C)C)cc1S(=O)(=O)N1CCCC1
 : -1	i	0.73	16	138	-4.8	108
> COC(=O)CSc1nc2ccccn2c(=O)c1C=O
 : 10	i	0.89	3	144	.	98
> CCNC(=O)CSc1nnc(-c2ccccc2)n1-c1ccc(OCC)cc1
 : 0	i	1	-20	93	-0.9	101
> Cc1nn(CCCC(=O)Nc2cc(Oc3ccc(F)cc3)cc([N+](=O)[O-])c2)c(C)c1[N+](=O)[O-]
 : -8	i	0.81	-7	127	-0.1	103
> O=c1[nH]cnc2[nH]ncc12
 : -11	i	0.81	24	101	-0.8	107
> COc1ccc(C2CCCN2C(=S)Nc2ccc(C)cc2Cl)cc1OC (configuration not stated)
 : 0	i	0.93	-29	123	.	105
> Cc1cc(NC(=O)COC(=O)[C@@H](NS(=O)(=O)c2ccccc2)C(C)C)no1
 : 1	i	0.92	29	120	.	102
> Cn1c(=O)c2c(nc(N3CCCCC3)n2CCSc2nc3ccccc3s2)n(C)c1=O
 : -2	i	1	-12	81	-0.4	100
> CCC1(c2ccc(F)cc2)NC(=O)N(CC(=O)Nc2ccc(S(N)(=O)=O)cc2)C1=O (configuration not stated)
 : -4	i	0.94	.	.	.	109

# Following part:
# Values in the order: PKD1 kinase inh	HSV replic up	HSV replic up primary fold	Insulin prom inh	Insulin prom inh cell count	GALR2 ag	RGS16-Gao HTS
> CCOc1ccc(-c2nnc(-c3cccs3)o2)cc1OCC
 : -2	i	0.89	.	.	1.1	103
> O=C(COC(=O)/C=C/c1ccc([N+](=O)[O-])cc1)NCc1ccco1
 : .	i	0.93	.	.	.	100
> CCOC(=O)N1CC=C2C(C#N)=C(N)C(C#N)(C#N)[C@H](c3ccsc3)[C@H]2C1
 : -3	i	1.1	42	124	-0.6	100
> CC1=CC2=NC(=O)/C(=C\c3cccn3CCOc3ccccc3C)C(=N)N2O1
 : -2	i	0.84	-47	99	.	104
> CSc1nc(-c2ccco2)nn1S(=O)(=O)c1ccc(C)cc1
 : -2	i	1	.	.	-1.4	92
> Cc1ccc(C(=O)N/C(=C\c2ccc(C)o2)C(=O)O)cc1
 : .	i	1.1	.	.	.	102
> COc1cccc(C2CC(c3cccc(C)c3)n3ncnc3N2)c1 (configuration not stated)
 : -3	i	0.84	-143	32	-0.3	100
> O=C(Nc1ccccc1)OCCNC(=O)c1cccc(Cl)c1
 : -2	i	0.99	-314	108	-2.7	103
> CCOc1cc(/C=N/n2c(C)nnc2C)ccc1O
 : .	i	1.1	.	.	.	102
> O=C(c1ccco1)N1CCN(C(=O)c2cccc3c2C(=O)N(C2CCCCC2)C3)CC1
 : -8	i	0.95	-128	117	0.4	103
> COc1ccc(/C=C2/SC(=O)N(CCC(=O)Nc3ccc(C)cc3)C2=O)cc1OC
 : 3	i	1.1	.	.	-1.2	186
> CCOc1cc(/C=N/NC(=O)CN2CCCCC2)ccc1OCc1cccc(Cl)c1
 : -10	i	0.91	26	61	-0.7	201
> CCOC(=O)CCn1cnc2ccc([N+](=O)[O-])cc2c1=O
 : -2	i	1	.	.	.	103
> O=C(CNC(=O)c1ccccc1F)NC1CC1
 : -6	i	1	53	12	-0.8	104
> Cc1cc(OCCCCn2ccnc2)cc(C)c1Cl
 : -6	i	0.9	.	.	.	98
> CCCCOP(=O)(c1ccc(N(C)C)cc1)C(O)c1ccc(OC)c(OC)c1 (configuration not stated)
 : .	i	0.96	.	.	.	107
> O=C(Nc1nc2ccccc2n1CCN1CCOCC1)c1ccc(COc2ccccc2Br)o1
 : -11	i	0.86	-76	58	.	90
> NS(=O)(=O)c1cccc(NC(=O)CSc2nnnn2-c2ccccc2)c1
 : .	i	0.89	.	.	.	96
> N#C/C(=C1\C(=O)Nc2c(Cl)cc(Cl)cc21)c1nnc2n1CCCCC2
 : -1	i	0.95	19	118	-1.0	96
> O=C(CCl)Nc1ccccc1C(=O)c1ccccc1
 : 4	i	0.89	.	.	.	83

# Full records, quoted from the list. Order of values: PKD1 kinase inh	HSV replic up	HSV replic up primary fold	Insulin prom inh	Insulin prom inh cell count	GALR2 ag	RGS16-Gao HTS
# `Cc1cc(NC(=O)COC(=O)[C@@H](NS(=O)(=O)c2ccccc2)C(C)C)no1` across the screens: 1	i	0.92	29	120	.	102
# `CCOC(=O)c1sc(Nc2cccc(Cl)c2)nc1C` across the screens: .	i	0.91	.	.	.	98

# Going on with the list:
# Values in the order: PKD1 kinase inh	HSV replic up	HSV replic up primary fold	Insulin prom inh	Insulin prom inh cell count	GALR2 ag	RGS16-Gao HTS
> Cc1ccc(OCC(=O)Nc2nnn(C)n2)c(C)c1
 : -9	i	0.82	.	.	-0.8	106
> CC1CCN(C(=O)c2cc3nc(-c4ccccc4)cc(-c4ccccc4)n3n2)CC1
 : -3	i	0.91	47	133	-0.1	101
> O=C(/C=C/c1ccc(Br)o1)Nc1nnc(C2CC2)s1
 : .	i	0.79	.	.	.	93
> COC(=O)C1=C(N)Oc2cc(N(C)C)ccc2C1c1ccccc1OC (configuration not stated)
 : 4	i	0.9	-73	11	-0.1	103
> CCN(CC)S(=O)(=O)c1ccc2c(c1)nc(CCC(=O)Nc1ccccc1Cc1ccccc1)n2CC
 : 6	i	0.76	-24	56	-2.3	93
> O=C(O)CSCCn1cccn1
 : 8	i	0.78	-30	120	-0.7	98
> CCOC(=O)c1ccccc1NC(=O)Nc1ccc(OC)c(OC)c1
 : 11	i	1.1	-34	71	-1.2	86
> CC(C)(C)c1ccc(OCCCNC2CCCC2)cc1
 : 8	i	0.78	.	.	.	104
> CN(C)c1ccc(Nc2c3c4c(cccc4n(C)c2=O)C(=O)c2ccccc2-3)cc1
 : -2	i	0.89	.	.	-1.0	75
> Nc1nc(SCc2ccccc2Cl)ns1
 : -4	i	0.91	-177	95	-1.8	103
> Fc1ccc(Br)cc1/C=N/n1cnnc1
 : -15	i	1	.	.	-0.7	99

# Source: PubChem (several laboratories)
